NOMO-1 viab – STK33 inhibitor candidate reducing NOMO-1 cell viability; NOMO-1 AML viability, CellTiter-Glo luminescence, 72 h; inhibition, % (no concentration beside the values); hit rate 7.5% among 37,000; AID 2330;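 active = most replicates above 80%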;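 also: wells of about 30 µL received 25 nL stock; 0% = median of vehicle wells and 100% = reference inhibitor level; the first replicate is given; inactives centre near 10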
* marks the source's active call; other numbers are inactive results. These rows are one share of the data; count on the stated rates, not on these rows.

SMILES | NOMO-1 viab
C[C@@H]1CN([C@H](C)CO)C(=O)Cc2cc(NS(=O)(=O)c3cccs3)ccc2O[C@H]1CN(C)S(C)(=O)=O | 11
C[C@@H]1CN([C@H](C)CO)C(=O)Cc2cc(NC(=O)Cn3cnnn3)ccc2O[C@H]1CN(C)S(=O)(=O)c1ccccc1 | 13
COc1ccc(NC(=O)N(C)C[C@H]2Oc3ccc(NC(=O)Nc4c(C)noc4C)cc3C(=O)N([C@H](C)CO)C[C@H]2C)cc1 | 19
CCN(C(=O)c1cnccc1C(F)(F)F)c1ccc(Cl)cc1Cl | 45
CC(C)NC(=O)N(C)C[C@H]1Oc2ccc(NC(=O)CCCCCC(=O)Nc3ccccc3N)cc2CC(=O)N([C@H](C)CO)C[C@H]1C | 15
COc1ccc(S(=O)(=O)N(CC(=O)N2CCOCC2)C2CCCCC2)cc1OC | -21
C[C@H](CO)N1C[C@H](C)[C@H](CN(C)S(C)(=O)=O)Oc2ccc(NC(=O)Nc3ccccc3)cc2C1=O | 10
O=[N+]([O-])c1ccc(N2CCN(S(=O)(=O)c3cccs3)CC2)cc1NCc1ccco1 | -11
O=C(COc1ccc(S(=O)(=O)NC2CCCCC2)cc1Cl)N1CCOCC1 | 4
C[C@H]1CN([C@@H](C)CO)C(=O)c2cccc(NS(=O)(=O)c3cccs3)c2O[C@@H]1CN(C)S(=O)(=O)c1ccccc1 | 4
C[C@H](CO)N1C[C@H](C)[C@H](CN(C)Cc2ccncc2)Oc2ccc(NC(=O)Cn3cnnn3)cc2CC1=O | 15
CSc1nc(N)nc(SC(C(=O)O)c2ccccc2)c1C#N (stereo unspecified) | -6
COc1ccc(S(=O)(=O)Nc2ccc3c(c2)C(=O)N([C@H](C)CO)C[C@H](C)[C@H](CN(C)Cc2ccc(C(F)(F)F)cc2)O3)cc1 | 52
COc1ccc(N(CC(=O)Nc2ccccc2-c2ccccc2)S(C)(=O)=O)cc1 | 0
Cc1cc(Cl)ccc1NC(=O)CSc1nc(C(F)(F)F)cc(=O)[nH]1 | -15
COc1ccc(-n2ncc(NC(=O)NCc3ccccn3)c2C)cc1 | 20
C[C@@H]1CCCCO[C@@H](CN(C)Cc2ccc(C(F)(F)F)cc2)[C@@H](C)CN([C@H](C)CO)C(=O)c2cc(NS(C)(=O)=O)ccc2O1 | 27
C[C@H](CO)N1C[C@H](C)[C@@H](CN(C)C)Oc2c(NS(=O)(=O)c3cn(C)cn3)cccc2C1=O | -3
C[C@@H]1CN([C@H](C)CO)C(=O)c2cc(NC(=O)NC3CCCCC3)ccc2O[C@H]1CN(C)S(=O)(=O)c1cccs1 | 2
COc1cc(O)cc2cc3c(c(O)c12)C(=O)C[C@@](C)(O)C3 | 8
C[C@H](CO)N1C[C@H](C)[C@@H](CN(C)Cc2ccc(Oc3ccccc3)cc2)Oc2c(NC(=O)c3ccncc3)cccc2C1=O | 2
C[C@H]1CN([C@@H](C)CO)C(=O)c2cc(NS(=O)(=O)c3cn(C)cn3)ccc2O[C@@H]1CN(C)Cc1ccc(Oc2ccccc2)cc1 | 23
OC(CN1CCOCC1)Cn1c2ccccc2c2ccccc21 (stereo unspecified) | 3
C[C@@H]1CN([C@H](C)CO)C(=O)Cc2cc(NC(=O)Nc3ccc(C(F)(F)F)cc3)ccc2O[C@@H]1CN(C)Cc1ccc(C(F)(F)F)cc1 | 120*
C[C@@H]1CCCCO[C@H](CN(C)C)[C@@H](C)CN([C@H](C)CO)C(=O)c2cc(NS(=O)(=O)c3ccc(Cl)cc3)ccc2O1 | -11

Going on with the list:
SMILES | NOMO-1 viab
C[C@H]1CN([C@@H](C)CO)C(=O)Cc2cc(NC(=O)CCCCCC(=O)Nc3ccccc3N)ccc2O[C@@H]1CN(C)S(=O)(=O)c1ccc(Cl)cc1 | -10
O=C(c1cc2ccccc2oc1=O)N(Cc1ccccc1)c1ccccn1 | 10
C[C@@H]1C(=O)O[C@H](C)[C@H]1C[C@@H](O)[C@](C)(O)[C@H]1CC[C@@]2(O)C3=CC(=O)[C@@H]4C[C@@H](O)[C@@H](O)C[C@]4(C)C3CC[C@]12C (stereo partly specified) | 4
Cc1ccc(S(=O)(=O)N(C)C[C@H]2OCCCC[C@@H](C)Oc3ccc(NS(=O)(=O)c4cccs4)cc3C(=O)N([C@H](C)CO)C[C@@H]2C)cc1 | 5
COC(=O)c1c(NC(=S)NCc2cccnc2)sc(C)c1C | 0
O=C(COc1ccccc1)Nc1ccc2oc(-c3ccc(Cl)cc3)nc2c1 | 15
CC(C)NC(=O)N(C)C[C@@H]1Oc2c(NC(=O)C3CCCCC3)cccc2C(=O)N([C@@H](C)CO)C[C@@H]1C | -1
CC(C)NC(=O)N(C)C[C@H]1Oc2ccc(NC(=O)Nc3ccccc3)cc2C(=O)N([C@H](C)CO)C[C@@H]1C | 18
COc1cccc(C(=O)NC(c2ccc(C)cc2)c2cc(Cl)c3cccnc3c2O)c1 (stereo unspecified) | 121*
CNC[C@H]1Oc2ccc(N(C)C)cc2C(=O)N([C@H](C)CO)C[C@H]1C | -2
CC(C)NC(=O)N(C)C[C@H]1OCCCC[C@@H](C)Oc2ccc(NS(=O)(=O)c3ccccc3)cc2C(=O)N([C@H](C)CO)C[C@@H]1C | 2
Cc1cc(C)nc(SCC(=O)Nc2cccc(C(=O)O)c2)n1 | 45
CCC(=O)Nc1nc2ccccc2n1CCCN(C)C | -8
C[C@@H]1CN([C@@H](C)CO)C(=O)c2cccc(NC(=O)c3ccc(-c4nccs4)cc3)c2O[C@@H]1CN(C)Cc1ccc(C(F)(F)F)cc1 | 88*
C[C@H]1CN([C@@H](C)CO)C(=O)Cc2cc(NC(=O)CCN3CCOCC3)ccc2O[C@@H]1CN(C)Cc1ccc(C(=O)O)cc1 | 18
Cc1cccc(NC(=O)CSc2nc(-c3cccs3)cc(C(F)(F)F)c2C#N)c1 | 35
COc1ccc(S(=O)(=O)Nc2ccc3c(c2)C(=O)N([C@H](C)CO)C[C@H](C)[C@@H](CN(C)S(=O)(=O)c2ccc(F)cc2)OCCCC[C@@H](C)O3)cc1 | 28
Cc1noc(C)c1NC(=O)N(C)C[C@H]1Oc2ccc(NC(=O)NC3CCCCC3)cc2C(=O)N([C@@H](C)CO)C[C@H]1C | 8
C=C1C[C@@]23CC[C@@H]4[C@](C)(CO)CCC[C@@]4(C)[C@@H]2CC[C@@H]1C3 | 20
N#CCCSc1nnc(-c2cccnc2)n1Cc1ccccc1 | -10
CC1CCC2(C)C(C(=O)O)=CCCC2C1(C)CCC1=CC(=O)OC1O (stereo unspecified) | 28
NC(=O)c1ccc(-n2nnnc2SCC(=O)Nc2ccccc2-c2ccccc2)cc1 | 11
COc1ccc(S(=O)(=O)Nc2ccc3c(c2)C(=O)N([C@@H](C)CO)C[C@@H](C)[C@@H](CN(C)S(=O)(=O)c2ccc(C)cc2)O3)cc1 | 2
COc1ccc(C2C(C(=O)c3ccco3)C(=O)C(=O)N2CCN(C)C)cc1OC (stereo unspecified) | -24
Cc1ccc2c(c1)CCCN2S(=O)(=O)c1cc(OCC(N)=O)c(C)cc1Cl | 93*

New compounds follow:
SMILES | NOMO-1 viab
CCc1ccc(OCC(=O)Nc2ccccc2C#N)cc1 | 17
Cc1noc(C)c1NC(=O)N(C)C[C@H]1Oc2ccc(NC(=O)CCC(F)(F)F)cc2C(=O)N([C@@H](C)CO)C[C@@H]1C | 11
CC(C)NC(=O)Nc1ccc2c(c1)C(=O)N([C@H](C)CO)C[C@H](C)[C@H](CN(C)Cc1ccc(C(F)(F)F)cc1)OCCCC[C@@H](C)O2 | 40
C[C@H]1CN([C@@H](C)CO)C(=O)c2cccc(NC(=O)c3nc4ccccc4s3)c2O[C@H]1CN(C)S(C)(=O)=O | 30
Cc1cccc(C)c1OCC(=O)Nc1ccccc1C#N | 20
Cc1noc(C)c1S(=O)(=O)Nc1ccc2c(c1)CC(=O)N([C@@H](C)CO)C[C@@H](C)[C@@H](CN(C)C(=O)Nc1ccccc1)O2 | -5
C[C@@H]1CN([C@@H](C)CO)C(=O)c2cccc(NC(=O)C3CCOCC3)c2O[C@H]1CN(C)Cc1ccc2c(c1)OCO2 | 31
O=C(CSc1nnc(-c2ccccc2)c(-c2ccccc2)n1)Nc1ccccc1 | 2
Cc1ccc(S(=O)(=O)Nc2ccc3c(c2)C(=O)N([C@@H](C)CO)C[C@H](C)[C@H](CN(C)S(=O)(=O)c2ccc(Cl)cc2)O3)cc1 | 47
CSCCC(NC=O)C(=O)NC(Cc1ccccc1)C(=O)O (stereo unspecified) | 2
C[C@@H]1CN([C@@H](C)CO)C(=O)c2cc(NS(=O)(=O)c3ccc(F)cc3)ccc2O[C@@H]1CN(C)S(=O)(=O)c1cccs1 | 6
COc1ccc(Br)cc1C(Nc1ccccn1)c1cc(Cl)c2cccnc2c1O (stereo unspecified) | 114*
Oc1ccc2c(c1O)OCC1c3cc4c(cc3OC21)OCO4 (stereo unspecified) | 105*
Cc1nnc(SCC(=O)Nc2cccc3ccccc23)s1 | 7
Cc1ccc(NC(=O)CSc2nnnn2-c2ccc(F)cc2)cc1C | -11
Cc1ccc(NC(=O)CSc2nnnn2-c2cccc(C(=O)O)c2)cc1C | -14
C[C@@H]1CN([C@@H](C)CO)C(=O)c2cccc(NC(=O)Nc3ccc(F)cc3)c2O[C@@H]1CN(C)C(=O)NC1CCCCC1 | 18
COc1ccc(OCC(=O)Nc2ccc(OC)cc2[N+](=O)[O-])cc1 | -11
O=C(CN1C(=O)c2cccc3cccc1c23)Nc1ccccc1C(=O)N1CCOCC1 | -10
C[C@H](CO)N1C[C@H](C)[C@H](CN(C)Cc2ccc(Oc3ccccc3)cc2)Oc2c(NC(=O)Nc3ccccc3)cccc2C1=O | 73
C[C@@H]1CCCCO[C@H](CN(C)Cc2ccc(Cl)c(Cl)c2)[C@@H](C)CN([C@H](C)CO)C(=O)c2cc(NS(=O)(=O)c3cccs3)ccc2O1 | 61
S=C(NC1CCCCC1)Sc1ccc(Cl)cc1 | 122*
C[C@H]1CN([C@@H](C)CO)C(=O)c2cccc(NC(=O)c3ccc(-c4nccs4)cc3)c2O[C@@H]1CN(C)S(=O)(=O)c1ccccc1 | 26
C[C@@H]1CN([C@H](C)CO)C(=O)Cc2cc(NC(=O)Cc3ccccc3)ccc2O[C@@H]1CN(C)S(=O)(=O)c1ccc(F)cc1 | 12
C[C@@H]1CCCCO[C@H](CN(C)CC2CCCCC2)[C@@H](C)CN([C@H](C)CO)C(=O)c2cc(NC(=O)Nc3ccc(F)cc3)ccc2O1 | 66

Copied from the list.
NOMO-1 viab result of `O=C(CSc1nnc(-c2ccccc2)c(-c2ccccc2)n1)Nc1ccccc1` stands at 2
NOMO-1 viab result of `C[C@H](CO)N1C[C@H](C)[C@H](CN(C)Cc2ccc(Oc3ccccc3)cc2)Oc2c(NC(=O)Nc3ccccc3)cccc2C1=O` stands at 73

Additional compounds.
SMILES | NOMO-1 viab
Cc1c(Br)c([N+](=O)[O-])nn1CC(=O)Nc1ccc(F)cc1 | -12
C[C@H]1CN([C@@H](C)CO)C(=O)c2cccc(NC(=O)C3CCOCC3)c2O[C@@H]1CN(C)Cc1ccc(-c2ccccc2)cc1 | 6
Cc1ccc(S(=O)(=O)Nc2cccc3c2O[C@@H](CN(C)C(=O)Nc2ccc(C(F)(F)F)cc2)[C@@H](C)CN([C@@H](C)CO)C3=O)cc1 | 69
C[C@@H]1CN([C@H](C)CO)C(=O)c2cccc(N(C)C)c2O[C@@H]1CN(C)C(=O)Nc1cccc2ccccc12 | 14
COc1ccc(S(=O)(=O)Nc2ccc3c(c2)CC(=O)N([C@@H](C)CO)C[C@@H](C)[C@@H](CN(C)Cc2ccc4c(c2)OCO4)O3)cc1 | 20
C[C@@H]1CN([C@@H](C)CO)C(=O)c2cc(NC(=O)NC3CCCCC3)ccc2O[C@H]1CN(C)C(=O)Nc1cccc2ccccc12 | 5
COc1ccc(CN(C)C[C@@H]2Oc3ccc(NC(=O)CCN4CCOCC4)cc3CC(=O)N([C@H](C)CO)C[C@H]2C)cc1 | -6
C[C@H](CO)N1C[C@H](C)[C@@H](CN(C)C(=O)Nc2ccc(C(F)(F)F)cc2)Oc2c(NS(=O)(=O)c3ccc(F)cc3)cccc2C1=O | 2
C[C@@H]1CN([C@H](C)CO)C(=O)c2cccc(NC(=O)c3nc4ccccc4s3)c2O[C@H]1CN(C)Cc1ccc(Oc2ccccc2)cc1 | 47
CSc1sc(C(=O)O)c2c1S(=O)(=O)N(C)c1ccccc1-2 | -14
COc1ccc(NC(=O)N(C)C[C@H]2Oc3ccc(NS(=O)(=O)c4ccc(F)cc4)cc3C(=O)N([C@H](C)CO)C[C@H]2C)cc1 | 27

Of the compounds above, these have an aryl thioether with sulfur outside any ring:
SMILES | NOMO-1 viab
CSc1nc(N)nc(SC(C(=O)O)c2ccccc2)c1C#N (stereo unspecified) | -6
Cc1cc(Cl)ccc1NC(=O)CSc1nc(C(F)(F)F)cc(=O)[nH]1 | -15
Cc1cc(C)nc(SCC(=O)Nc2cccc(C(=O)O)c2)n1 | 45
Cc1cccc(NC(=O)CSc2nc(-c3cccs3)cc(C(F)(F)F)c2C#N)c1 | 35
N#CCCSc1nnc(-c2cccnc2)n1Cc1ccccc1 | -10
NC(=O)c1ccc(-n2nnnc2SCC(=O)Nc2ccccc2-c2ccccc2)cc1 | 11
O=C(CSc1nnc(-c2ccccc2)c(-c2ccccc2)n1)Nc1ccccc1 | 2
Cc1nnc(SCC(=O)Nc2cccc3ccccc23)s1 | 7
Cc1ccc(NC(=O)CSc2nnnn2-c2ccc(F)cc2)cc1C | -11
Cc1ccc(NC(=O)CSc2nnnn2-c2cccc(C(=O)O)c2)cc1C | -14
CSc1sc(C(=O)O)c2c1S(=O)(=O)N(C)c1ccccc1-2 | -14
